Fam108B counter – counter-screen for RBBP9 inhibitors: inhibitors of mouse Fam108B. recombinant Fam108B, FP-Rh probe fluorescence polarization. 300,000 compounds, 0.33% hits. AID 1947. inhibition, % at 9.51 µM;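 active means inhibition above the screen mean inhibition plus 3 SD, computed separately per campaign, cut at about 18% in these data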;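 further: inhibitors lower polarization as less probe binds the enzyme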
PME-1 inh – blocks human protein phosphatase methylesterase 1; Q9Y570; 320,000 compounds, 0.53% hits; recombinant PME-1, FP-Rh probe fluorescence polarization; AID 2130; inhibition, % at 5.9 µM;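 active means inhibition above the campaign mean of all compounds plus 3 SD, cut at about 26% in these data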;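 further: competitive labeling of PME-1 active site by serine hydrolase directed probe; 0% = PME-1 with DMSO and 100% = wells lacking PME-1 enzyme; inhibitors block probe labeling so polarization falls and inhibition rises; many of its hits are not listed in these tables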
GLD-1 RNA inh – GLD-1-TGE RNA interaction inhibition (C. elegans). inhibition, % at 5.96 µM. 320,000 compounds, 0.44% hits. purified GLD-1 + fluorescein TGE RNA, fluorescence polarization. Q17339;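 active means percent inhibition above a per-plate cutoff, the plate mean of test compounds plus 3 SD, cut at about 30% in these data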;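 further: 0% = DMSO wells with GLD-1 and probe and 100% = wells lacking GLD-1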
MEX-5 binding – C. elegans MEX-5 TCR-2 RNA binding activity | 300,000 compounds, 0.38% hits | Q9XUB2 | activity score (negative = inhibition of binding), % at 10 µM | MEX-5/FITC-TCR2 RNA binding, fluorescence polarization; active compounds read low;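 active means inhibition past about -25% in most replicates, and total fluorescence under double the plate's negative control median, limit read from the data; inconclusive means replicates evenly split on the limit, or fluorescence at least double controls; inactive means too little inhibition in most replicates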;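 further: 0% = DMSO and -100% = 5 µM competing unlabeled TCR2 RNA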
pPAFAH inh – pPAFAH (human) enzyme inhibition. Q13093. recombinant pPAFAH, FP-rhodamine probe fluorescence polarization. inhibition, % at 3.39 µM. 330,000 compounds, 1.5% hits;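 active means inhibition above the mean inhibition across the screen plus 3 SD, cut at about 25% in these data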;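 further: inhibitors block binding of the rhodamine activity-based probe so polarization drops; 0% = enzyme with DMSO and 100% = wells lacking pPAFAH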
AHR activator – activators of human aryl hydrocarbon receptor. P35869. AHR-responsive luciferase reporter cells, luminescence. activation, % at 5 µM. 320,000 compounds, 2.5% hits. AID 2796; in the data active means activation above about 47%;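 further: 0% = vehicle wells and 100% = reference agonist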
Target sequence (P35869 whole entry, looked up): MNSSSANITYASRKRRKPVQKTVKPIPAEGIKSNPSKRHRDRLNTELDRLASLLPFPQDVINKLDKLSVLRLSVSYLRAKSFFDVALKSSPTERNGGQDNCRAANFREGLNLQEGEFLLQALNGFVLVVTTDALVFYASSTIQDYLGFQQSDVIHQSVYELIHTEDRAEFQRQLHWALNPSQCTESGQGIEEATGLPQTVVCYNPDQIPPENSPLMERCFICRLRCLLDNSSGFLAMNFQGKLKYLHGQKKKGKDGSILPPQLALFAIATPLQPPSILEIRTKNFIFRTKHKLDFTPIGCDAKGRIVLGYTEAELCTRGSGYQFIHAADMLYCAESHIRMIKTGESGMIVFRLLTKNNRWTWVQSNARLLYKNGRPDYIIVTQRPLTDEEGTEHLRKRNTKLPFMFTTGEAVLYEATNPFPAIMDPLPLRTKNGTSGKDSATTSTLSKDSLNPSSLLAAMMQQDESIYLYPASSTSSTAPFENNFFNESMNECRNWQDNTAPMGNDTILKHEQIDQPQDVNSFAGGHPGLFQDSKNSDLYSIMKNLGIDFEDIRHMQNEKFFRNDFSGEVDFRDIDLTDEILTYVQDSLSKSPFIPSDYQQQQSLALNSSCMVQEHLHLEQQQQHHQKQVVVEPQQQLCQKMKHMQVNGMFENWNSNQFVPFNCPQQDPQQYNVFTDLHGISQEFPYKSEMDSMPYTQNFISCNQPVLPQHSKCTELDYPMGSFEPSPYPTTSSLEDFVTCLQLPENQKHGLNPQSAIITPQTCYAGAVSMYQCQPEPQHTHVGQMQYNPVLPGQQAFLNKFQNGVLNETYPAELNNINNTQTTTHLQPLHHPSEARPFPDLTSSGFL
PAFAH1B2 inh – inhibitors of human PAFAH1B2; P68402; recombinant PAFAH1B2, FP-rhodamine activity probe, fluorescence polarization; inhibition, % at 3.39 µM; 340,000 compounds, 1.2% hits; AID 492953;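 active means inhibition above the mean of all tested compounds plus 3 SD, cut at about 24% in these data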;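 further: 0% = enzyme with DMSO and 100% = wells lacking PAFAH1B2; many of its hits are not listed in these tables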
Target sequence (P68402 whole entry, looked up): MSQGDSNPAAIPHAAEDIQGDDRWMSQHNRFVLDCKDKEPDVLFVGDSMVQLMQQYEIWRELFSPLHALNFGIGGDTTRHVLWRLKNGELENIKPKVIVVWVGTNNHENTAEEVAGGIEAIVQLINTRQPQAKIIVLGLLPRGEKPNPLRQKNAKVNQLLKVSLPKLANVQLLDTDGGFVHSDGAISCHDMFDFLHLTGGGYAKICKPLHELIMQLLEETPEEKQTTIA
* = called active by the depositor; u = inconclusive; x = no result given; & = joins results of further samples.

SMILES	Fam108B counter	PME-1 inh	GLD-1 RNA inh	MEX-5 binding	pPAFAH inh	AHR activator	PAFAH1B2 inh
CCOc1cc(C)c(Cl)cc1S(=O)(=O)NCc1ccc2c(c1)OCO2	-6	7	0	1.3	-6	17	8
CS(=O)(=O)N1CCN(c2ccc([N+](=O)[O-])c(NCc3ccc(Cl)cc3)c2)CC1	-1	2	5	1.5	13	13	5
O=c1[nH]c(CN2CCOCC2)nc2cc(Cl)ccc12	3	1	-8	-1.6	-3	2	-2
Cc1ccc(Nc2ncnc(N)n2)cc1	0	5	-3	-0.7	-1	3	6
CC(C)(C)NC[C@H](O)COc1nsnc1N1CCOCC1	1&4	2&-1	1&2	1.0	-3&2	-3&-2	4&-2&-2
CCCCn1c(N)c(-c2nc3ccccc3o2)c2c([N+](=O)[O-])nn(C)c(=O)c21	-2	-1	2	-1.2	7	16	-2
COCCn1c(=NC(=O)CSCC(=O)Nc2cc(C)on2)sc2cc(C(=O)OC)ccc21	-2	-5	-5	-0.5	0	-3	1
O=C(N/N=C/c1cn(-c2ccccc2)nc1-c1ccc2c(c1)OCCO2)c1ccncc1	-12	-29	4	0.6	-5	12	-2
CC(=O)C1(O)CCC2C3CC(C)C4=CC(=O)C=CC4(C)C3(F)C(O)CC21C (stereo unspecified)	x	x	x	x	x	x	7
OC(CCN1CCCCC1)(c1ccccc1)c1ccccc1	3	-5	3	2.5	-4	-2	-3
CN1C(=O)OC(C)(C)C1=O	1	-1	4	-3.0	1	-4	5
COc1c(C)c2c(c(O)c1C/C=C(\C)CCC(=O)O)C(=O)OC2	-1	-6	3	0.1	2	0	5
COc1cccc(OC)c1C(=O)Nc1cccnc1	1	1	1	1.1	2	2	8
CCOC(=O)Nc1ccc2c(c1)N(C(=O)CCN1CCN3CCCC3C1)c1ccccc1CC2 (stereo unspecified)	0	-1	9	-0.8	1	7	9
Cc1nc(NC(=O)Nc2ccc(Cl)cc2)sc1C	2	0	2	0.8	1	4	1
CC(C)N=C(N)N=C(N)Nc1ccc(Cl)cc1	3	-3	0	x	5	10	0
Cc1ccccc1NC1=C(Cl)C(=O)OC1OC(C)C (stereo unspecified)	6	2	-1	0.7	-7	11	6
CCCCNc1nc(-c2ccccc2)c(C(=O)OCC)cc1C#N	-4	-6	-2	1.0	10	22	6
Cc1cccc(Nc2ncnc(N)n2)c1	4	-1	6	1.1	-1	3	3
COc1cccc(/C=c2\s/c(=C/C(=O)c3ccc(C)cc3)[nH]c2=O)c1OC	-20	-4	3	-4.0	3	2	-7
Oc1ccc(N2CCN(c3nc(-c4cccs4)nc4ccccc34)CC2)cc1	3	9	8	-0.7	18	12	3
COc1ccc(-c2cc(-c3nnc(-c4ccncc4)o3)c3ccccc3n2)cc1	-12	5	6	-2.9	0	10	2
Cc1cccc(NC2=C(Cl)C(=O)OC2OC(C)C)c1 (stereo unspecified)	-1	3	6	-0.6	0	-1	1
CCCc1nc(SCC(=O)N2CCc3ccccc3C2)c2ccccc2n1	6	2	-9	2.2	0	4	1
Cc1ccc(NC(=O)Nc2nnc(-c3ccncc3)s2)cc1C	-1	-96	2	1.1	2	10	4

Some values from above:
`O=C(N/N=C/c1cn(-c2ccccc2)nc1-c1ccc2c(c1)OCCO2)c1ccncc1` | AHR activator = 12
`CCCCn1c(N)c(-c2nc3ccccc3o2)c2c([N+](=O)[O-])nn(C)c(=O)c21` | AHR activator = 16
`Cc1cccc(Nc2ncnc(N)n2)c1` | Fam108B counter = 4
`Cc1nc(NC(=O)Nc2ccc(Cl)cc2)sc1C` | AHR activator = 4

(listing goes on)
SMILES	Fam108B counter	PME-1 inh	GLD-1 RNA inh	MEX-5 binding	pPAFAH inh	AHR activator	PAFAH1B2 inh
CCNc1nc(CSc2ccccc2)nc2sc(C)c(C)c12	0	1	-1	2.6	6	25	2
Fc1ccc2nc(Nc3nc4cc5c(cc4s3)OCO5)sc2c1	40*	52*	-2	1.3	24	119*	23
COc1cc(/C=N/NC(N)=S)ccc1OCC(=O)Nc1ccc(C)c(C)c1	-4	-11	-4	-1.5	-6	38	0
CN(C)CC[C@@H](c1ccc(Br)cc1)c1ccccn1	-5	-1	1	1.5	3	-4	4
C#CCn1c(=NC(=O)CSCC(=O)N2CCOCC2)sc2ccccc21	-1	5	-3	-1.1	5	44	3
CC(=O)c1ccc(OCc2cc(=O)n3ccsc3n2)cc1	-4	1	-2	x	4	1	7
O=C(N/N=C/c1cn(-c2ccccc2)nc1-c1cccnc1)c1ccc(F)cc1	-6	1	6	-11	-5	28	-3
c1ccc(N(c2ccccc2)c2nc(-n3ccnc3)nc(-n3ccnc3)n2)cc1	-1	-2	-1	4.0	3	3	7
CC12C=CC(=O)C=C1CCC1C2C(O)CC2(C)C1CCC2(O)C(=O)CO (stereo unspecified)	x	x	x	x	x	x	4
CN1C(=O)NC(c2ccccc2)C2=C1CN(c1ccc3ccccc3c1)C2=O (stereo unspecified)	-8	-5	-3	1.3	0	68*	-1
CCOC(=O)c1cc(C#N)c(N2CCNCC2)nc1C(F)(F)F	1	-2	-1	5.2	3	3	1
CC[C@H]1CN2CCc3cc(OC)c(OC)cc3[C@@H]2C[C@@H]1C[C@H]1NCCc2cc(OC)c(OC)cc21	0	0	1	-7.2	7	-12	2
CC(C)=CCC/C(C)=C/C(=O)O	0	-8	-4	0.9	-3	1	1
CCOC(=O)/C(C#N)=C/c1ccc(OCC(=O)Nc2ccc(C)c(C)c2)c(OC)c1	-10	-1	1	1.4	8	4	7
Nc1cccc([N+](=O)[O-])c1	6	8	-1	1.3	-2	14	2
Cc1ccc(-n2nc(C(=O)NCc3ccc(C)o3)c3c4ccccc4n(C)c3c2=O)cc1	-5	-4	6	2.4	1	6	1
CCOC(=O)c1cc(C#N)c(N2CCCC2)nc1-c1ccccc1	-4	-2	-3	-2.8	13	26	4
CCc1cccc2c(C(=O)COC(=O)c3nn(C)c(=O)c4ccccc34)c[nH]c12	-9	-31	12	-3.2	-3	-1	-2
CCCCn1c(N)c(-c2nc3ccccc3o2)c2c([N+](=O)[O-])nn(CC)c(=O)c21	15	3	9	2.4	0	14	3
Cc1ccc(Nc2nc(N)nc(CCl)n2)cc1	0	-2	-1	-0.8	3	8	x
CC(=O)c1ccc(NC(=S)N2CCN(CCN3C(=O)c4cccc5cccc(c45)C3=O)CC2)cc1	2	2	-1	-0.2	-3	122*	4
NC(=O)c1ncn([C@@H]2O[C@H](CO)[C@@H](O)[C@H]2O)n1	3	3	3	-0.6	-5	-3	-2
CCC(c1ccc(O)cc1)C(CC)c1ccc(O)cc1 (stereo unspecified)	-3	-3	0	x	7	-1	15
CC12CCC(=O)C=C1CCC1C2C(=O)CC2(C)C1CC[C@]2(O)C(=O)CO (stereo partly specified)	-2	-4	-6	-1.3	-3	0	2
Cc1ccc(NC(=O)c2cnn(-c3ccccc3)c2NC(=O)c2ccco2)cc1	2	2	-4	-1.8	0	18	0

Further structures.
SMILES	Fam108B counter	PME-1 inh	GLD-1 RNA inh	MEX-5 binding	pPAFAH inh	AHR activator	PAFAH1B2 inh
Cc1cccc(N2C(=O)CN=C2Nc2nc(C)cc(C)n2)c1	3	4	2	1.9	-2	92*	-3
C=CCNc1nc(-c2ccccc2)c(C(=O)OCC)cc1C#N	-4	-3	-2	-2.6	6	35	5
Cc1ccc(Nc2ncnc(N)n2)cc1C	-3	5	6	0.5	2	7	0
CCN(CC)S(=O)(=O)c1cc(C(=O)Oc2cccc(-c3cnc4ccccc4n3)c2)ccc1Br	-10	4	6	-1.1	0	1	1
CN1C(=O)c2cccc3c(N)ccc(c23)C1=O	8	15	198*	-51*	18	15	12
COc1ccc(OC)c(-c2cc(C(F)(F)F)c3c(n2)sc2c(O)cc(=O)[nH]c23)c1	-2	-11	-8	2.9	7	2	2
CCCOc1ccc(N/C=C/C(=O)C(C)(C)C)cc1	-2	6	-4	1.1	-1	-1	-4
COc1cccc(C(=O)COc2cccc(NC(=O)c3ccco3)c2)c1	3	1	1	-3.8	3	5	-2
CCc1cc2c(NC3CCCC3)ncnc2s1	-1	9	6	x	7	7	1
COc1ccc2[nH]c(C)c(C(=O)CN3CCOCC3)c2c1	-1	3	2	-2.1	5	10	-2
CCOC(=O)c1cc2sccc2n1CC(=O)N1CCN(C(=O)c2ccco2)CC1	2	1	1	0.1	2	-1	0
CN1CCN(CC(=O)Nc2cc(N(C)C)nc3ccccc23)CC1	2	-1	5	-0.8	1	4	1
C/C(=N/NC(=O)c1ccco1)c1cccc(NC(=O)c2ccc(C)o2)c1	6	3	-3	-1.2	0	9	3
COc1ccc(-c2ccc(=O)[nH]n2)cc1	2	4	0	-3.0	-5	1	3
Cn1c(OCc2cccnc2)nc2c1c(=O)n(Cc1ccc(F)cc1)c(=O)n2C	6	-4	-1	0.0	0	20	7
CCN(CC)CCOC(=O)c1ccc(N/C=C(/C#N)c2nc(-c3cccc(OC)c3)cs2)cc1	-6	-8	0	2.5	0	1	x
O=C(COc1ccc(/C=N/NC(=O)c2ccccc2O)cc1)Nc1ccc([N+](=O)[O-])cc1	-41	-52	8	0.9	2	2	-20
COc1cc2nc(CN3CCN(C(C)=O)CC3)[nH]c(=O)c2cc1OC	1	-3	-3	1.9	-3	0	3
CCCCNC(=O)COC(=O)c1cc(F)c(F)cc1Cl	-2	-1	14	-0.4	-1	0	2
CC1(OC(=O)CCc2ccccc2)C(=O)C=C2C=C3CCCN3C=C2C1=O (stereo unspecified)	3	4	15	-10	16	0	10
Nc1ncn([C@H]2C[C@H](O)[C@@H](CO)O2)c(=O)n1	1	-6	0	-1.7	-2	-2	6
Cc1cc2nc3c(=O)n(Cc4ccccc4)c(=O)[nH]c3nc2cc1N	20*	10	190*	u	59*	18	x
CO[C@@]1(NC(=O)CSCC#N)C(=O)N2C(C(=O)O)=C(CSc3nnnn3C)CS[C@@H]21	0	0	4	-2.8	0	0	0
Cc1sc2nc(CSc3ccccc3)nc(N3CCN(C)CC3)c2c1C	0	-2	3	4.0	5	-5	-3
Cc1ccc(/C=C2/C(=O)N(c3ccccc3)C(=S)N2C)o1	-2	-7	6	-2.5	0	2	5

Five entries out of the list above, arranged by the number in AHR activator, ascending:
| molecule | AHR activator |
| --- | --- |
| Cc1sc2nc(CSc3ccccc3)nc(N3CCN(C)CC3)c2c1C | -5 |
| CCN(CC)CCOC(=O)c1ccc(N/C=C(/C#N)c2nc(-c3cccc(OC)c3)cs2)cc1 | 1 |
| O=C(COc1ccc(/C=N/NC(=O)c2ccccc2O)cc1)Nc1ccc([N+](=O)[O-])cc1 | 2 |
| C/C(=N/NC(=O)c1ccco1)c1cccc(NC(=O)c2ccc(C)o2)c1 | 9 |
| C=CCNc1nc(-c2ccccc2)c(C(=O)OCC)cc1C#N | 35 |

Continued:
SMILES	Fam108B counter	PME-1 inh	GLD-1 RNA inh	MEX-5 binding	pPAFAH inh	AHR activator	PAFAH1B2 inh
CC1(NC(=O)CCc2nc3sc4c(c3c(=O)[nH]2)CCCC4)CCS(=O)(=O)C1 (stereo unspecified)	-7	-11	2	0.6	20	4	-1
CN(C)CCC(c1ccc(Br)cc1)c1ccccn1 (stereo unspecified)	2&2	2&1	1&-4	-3.0	-2&0	-3&-2	3&2&-5
Cc1cccc(-n2c(O)cnc2Nc2nc(C)cc(C)n2)c1	1	-1	-3	0.2	-1	65*	x
CCOc1ccc(NC(=O)Cn2cncc2-c2ccc([N+](=O)[O-])cc2)cc1	-3	-4	8	-1.5	6	1	-2
CCOC(=O)c1cc(C#N)c(Oc2ccccc2)nc1-c1ccccc1	1	10	9	-0.1	5	13	-4
O=C(CC1Sc2ccccc2NC1=O)OCc1cc(=O)oc2cc(O)ccc12 (stereo unspecified)	-3	4	-2	0.0	16	18	5
Nc1nc(N)nc(-c2cc(Cl)ccc2Cl)n1	4	2	0	-1.8	-3	-2	7
CCCCCc1ccc(-c2ccc(=O)[nH]n2)cc1	-4	4	3	-3.2	8	0	8
Cc1cccc(Nc2ccccc2C(=O)O)c1C	-3	-1	7	0.5	12	0	7

Screening results from PubChem.

These rows are one share of the data. The share of hits here may be higher or lower than overall.
